# Compound activity deposited in PubChem by National Center for Advancing Translational Sciences (NCATS).
# AmpC inh no det – blocks E. coli AmpC beta-lactamase in absence of detergent. P00811. AmpC nitrocefin hydrolysis, absorbance 480 nm, no detergent; potencies from a single point are estimates. Potency, µM (top dose mostly 28.7 µM), for the others: at the highest dose activity change, negative = inhibition. actives 1.8% (n = 71,000). AID 585; active = falling curve, for most hits resting on a single point; inconclusive = weak or doubtful change; inactive = flat or rising curve; also: % of control where 0% means no effect; about half of the hits show no inhibition at the top dose; a quarter of the inactives give rising signals
# Target sequence (P00811 whole entry, looked up): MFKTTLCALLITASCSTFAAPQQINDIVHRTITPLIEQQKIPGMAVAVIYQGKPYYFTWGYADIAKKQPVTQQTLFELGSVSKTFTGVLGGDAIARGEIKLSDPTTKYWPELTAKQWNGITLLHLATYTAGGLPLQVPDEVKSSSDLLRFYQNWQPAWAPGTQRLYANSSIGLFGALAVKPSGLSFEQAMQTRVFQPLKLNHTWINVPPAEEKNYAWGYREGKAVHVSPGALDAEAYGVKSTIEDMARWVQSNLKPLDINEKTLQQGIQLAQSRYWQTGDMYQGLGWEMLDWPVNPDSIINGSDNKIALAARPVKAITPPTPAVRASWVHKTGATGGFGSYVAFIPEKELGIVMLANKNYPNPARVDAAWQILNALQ
#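 AmpC in 20 mM phosphate buffer pH 7.0 was preincubated 15 min at room temperature with compounds. Nitrocefin (800 uM stock) was then added and hydrolysis followed at 480 nm every 20 s for 4 min.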
# * = called active by the depositor; ? = inconclusive; & = joins results of further samples; [ ] = remark or other dose. Potency is read from the fitted curve at half-maximal effect. The list is partial (hit frequency here may not be typical).
SMILES,AmpC inh no det
Cc1ccccc1NCN1C(=O)C2C3C=CC(C3)C2C1=O (stereo not drawn),2%
O=C1c2ccccc2C(O)N1Cc1ccccc1 (stereo not drawn),1%
CN(CC(=O)N1CC=C(c2ccccc2)CC1)S(=O)(=O)c1ccc2c(c1)c(=O)n(C)c(=O)n2C,?
COc1ccc(CCN(Cc2nc3ccccc3c(=O)[nH]2)C(=O)c2ccco2)cc1,3%
CCOC(=O)C1CCN(C(=O)COc2ccc(S(=O)(=O)NC(C)C)cc2Cl)CC1,65%
CC1CC(C)CN(CCCNC(=O)c2ccc(CS(=O)(=O)Cc3ccccc3F)o2)C1 (stereo not drawn),-6%
CCC(C)N1C(=O)NC(=O)C2(Cc3c(ccc4ccccc34)N(C)C2)C1=O (stereo not drawn),-5%
CCCCn1c(SCC(=O)O)nc2ccccc21,-2%
COCCCN1CN(S(=O)(=O)c2ccc(Cl)cc2)c2nc3ccccc3nc21,98%
C=CCN(C(=O)Cn1nnc2ccccc21)C(C(=O)NCCOC)c1ccc(OC)cc1OC (stereo not drawn),52%
O=C(c1cc(-c2ccc(Cl)cc2Cl)on1)N1CCOCC1,42%
Cc1cc(C(F)(F)F)nc(Nc2nc(C)c3ccccc3n2)n1,13%
CC(C)CC(NC(=O)C(CC(C)C)NC(=O)OC(C)(C)C)C(=O)O (stereo not drawn),-3%
CC1Cc2ccccc2N1S(=O)(=O)c1cnc[nH]1 (stereo not drawn),-7%
C=C(C)C(=O)OCC(C)C,9%
Cc1cc2cc(CN3C(=O)c4ccccc4C3=O)ccc2[nH]1,2%
CC(=O)c1c(C)n(-c2ccccc2)c2ccc(OCC(O)CN3CCOCC3)cc12 (stereo not drawn),144%
COC(=O)c1cc(NC(=O)CCc2c(C)nc3ncnn3c2C)cc(C(=O)OC)c1,51%
CCOC(=O)c1ccccc1NC(=O)c1cc(S(=O)(=O)N2CCOCC2)ccc1F,129%
NCCC[C@@H](CC(=O)N[C@@H]1CCNC[C@H]1C(=O)N[C@H](CC(=O)N[C@@H](CCC(=O)O)CC(=O)O)Cc1c[nH]c2ccccc12)NC(=O)C[C@H](Cc1c[nH]c2ccccc12)NC(=O)[C@@H]1CCCC[C@H]1N,145%
COc1ccccc1-c1ccc2ncnc(N3CCNCC3)c2c1,12%
O=C(O)CC(C(=O)NCc1ccccc1)C1CCCO1 (stereo not drawn),-14%
CCCCN1C(=O)CC(Nc2ccc(CC)cc2)C1=O (stereo not drawn),17%
Cc1cc(C)c(NC(=O)CCCN2CCN(C)CC2)c(C)c1,-2%
OCCNc1ncnc2c1ncn2Cc1ccccc1,2%
SMILES,AmpC inh no det
CS(=O)(=O)Nc1cccc(-c2nc(NCc3cccnc3)c3ccccc3n2)c1,8%
COc1ccc(OC)c(NC(=O)COC(=O)c2ccc(S(=O)(=O)N3CCOCC3)cc2)c1,76%
CSCSC1=C(C#N)C(c2ccc(Cl)cc2)C(C(C)=O)=C(C)N1 (stereo not drawn),-9%
O=C1CCCN1CCC1CCN(C2CC(=O)N(Cc3ccc(N4CCCC4=O)cc3)C2=O)CC1 (stereo not drawn),43%
CCOC(=O)Cn1c(=O)oc2cc(S(=O)(=O)Nc3cc(Cl)ccc3OC)ccc21,24%
Cc1cc(=O)oc2c(CN(C)Cc3ccccc3)c(O)ccc12,-3%
CCOC(=O)c1c(N)nn(C(C)=O)c1-c1ccccc1,2%
O=C(Cn1cccc1C(=O)c1ccccc1)NCCN1CCCCCC1,17%
COc1ccc(CCNS(=O)(=O)c2ccc(S(=O)(=O)N3CCCC3)cc2)cc1OC,21%
S=c1[nH]nc(-c2ccncc2)n1Cc1ccco1,-4%
CCn1c(SCc2ccccc2)nnc1-c1ccc(S(=O)(=O)N2CCCCC2)cc1,68%
COC(=O)c1sc2nc3c(cc2c1N)C(=O)CC(C)(C)C3,6%
Cc1nc(=O)c(-c2ccccc2)c(C)n1-c1ccc(O)c(C(=O)O)c1,-4%
CCn1c(SCC(=O)OC2CCCCC2)nnc1-c1ccncc1,66%
C[C@@H]1Oc2ccc(C(=O)C[C@@H](C(=O)O)c3ccc4c(c3)OCO4)cc2O1,0%[5.75 µM]
O=C1NC(c2ccncc2)Nc2ccccc21 (stereo not drawn),-5%
Nc1nc2ccc(Cl)cc2c2nc(-c3ccco3)nn12,-10%&6%
COCCN(CC(=O)NCc1ccc(F)cc1)C(=O)CCC(=O)Nc1ccccn1,14%
COCCNC(=O)CN1C(=O)CC(C)(C)S(=O)(=O)c2ccccc21,6%
COc1ccc(-c2cn3c(C)c(C(=O)Nc4cc(NC(C)=O)ccc4OC)sc3n2)cc1,30%
CN1C2CCC1CC(OC(=O)CCN1CCCC1)C2 (stereo not drawn),-11%
Cn1c(Cn2c(=O)sc3ccccc32)nnc1SCC(=O)N1CCCc2ccccc21,4µM*[single pt active]
CCCCC(=O)NCCc1cc2c(C)ccc(C)c2[nH]c1=O,7%
COc1ccc(C(C)(C)C)cc1S(=O)(=O)N1CCN(C)CC1,22%
Cc1sc2nc(SCC(=O)c3cccs3)n(Cc3ccco3)c(=O)c2c1C,-24%

# Given bar-delimited: entries from further up
SMILES | AmpC inh no det
S=c1[nH]nc(-c2ccncc2)n1Cc1ccco1 | -4%
CCn1c(SCc2ccccc2)nnc1-c1ccc(S(=O)(=O)N2CCCCC2)cc1 | 68%
COC(=O)c1sc2nc3c(cc2c1N)C(=O)CC(C)(C)C3 | 6%
Cc1nc(=O)c(-c2ccccc2)c(C)n1-c1ccc(O)c(C(=O)O)c1 | -4%
CCn1c(SCC(=O)OC2CCCCC2)nnc1-c1ccncc1 | 66%
C[C@@H]1Oc2ccc(C(=O)C[C@@H](C(=O)O)c3ccc4c(c3)OCO4)cc2O1 | 0%[5.75 µM]
O=C1NC(c2ccncc2)Nc2ccccc21 (stereo not drawn) | -5%
Nc1nc2ccc(Cl)cc2c2nc(-c3ccco3)nn12 | -10%&6%
COCCN(CC(=O)NCc1ccc(F)cc1)C(=O)CCC(=O)Nc1ccccn1 | 14%
COCCNC(=O)CN1C(=O)CC(C)(C)S(=O)(=O)c2ccccc21 | 6%
COc1ccc(-c2cn3c(C)c(C(=O)Nc4cc(NC(C)=O)ccc4OC)sc3n2)cc1 | 30%
CN1C2CCC1CC(OC(=O)CCN1CCCC1)C2 (stereo not drawn) | -11%
Cn1c(Cn2c(=O)sc3ccccc32)nnc1SCC(=O)N1CCCc2ccccc21 | 4µM*[single pt active]
CCCCC(=O)NCCc1cc2c(C)ccc(C)c2[nH]c1=O | 7%
COc1ccc(C(C)(C)C)cc1S(=O)(=O)N1CCN(C)CC1 | 22%
Cc1sc2nc(SCC(=O)c3cccs3)n(Cc3ccco3)c(=O)c2c1C | -24%

# 2 records drawn at random from those above:
SMILES,AmpC inh no det
COC(=O)c1sc2nc3c(cc2c1N)C(=O)CC(C)(C)C3,6%
O=C1CCCN1CCC1CCN(C2CC(=O)N(Cc3ccc(N4CCCC4=O)cc3)C2=O)CC1 (stereo not drawn),43%

# Carrying on:
SMILES,AmpC inh no det
CCCCC(=O)OCC(=O)Nc1ccc(OC(F)F)cc1,0%
COCCn1c(=O)c(-c2cccs2)nc2cnc(OCc3ccccc3)nc21,8%
COc1ccc(-n2nnnc2SCC(=O)Nc2cccc(NC(C)=O)c2)cc1OC,41%
CCO[P@]1(=O)OC[C@@H]2O[C@H](n3cnc4c(N)ncnc43)[C@H](O)[C@@H]2O1,7%[5.75 µM]
CC(=O)N1C=CN(C(C)=O)C(c2cn(C)c3ccccc23)C1c1cn(C)c2ccccc12 (stereo not drawn),135%
CCN(CC)CCCN1C(=O)C(=O)/C(=C(/O)c2cc(C)ccc2C)C1c1cccnc1 (stereo not drawn),-2%
Cc1cccc(-c2noc(-c3ccccc3C(=O)NCC3CCCO3)n2)c1 (stereo not drawn),70%
CSc1ccc(Cl)c(C(=O)OCC(=O)N2CCOCC2)c1,13%
Cc1c(N=C2SCC(=O)N2c2c(C)n(C)n(-c3ccccc3)c2=O)c(=O)n(-c2ccccc2)n1C,3%
CCOC(=O)C1CCN(CC(=O)Nc2c(C(=O)OC)[nH]c3cccc(Cl)c23)CC1,-9%
Cc1[nH]c2ccccc2c1C(=O)CN1CCCCC1CCO (stereo not drawn),-20%
O=C(COC(=O)CCS(=O)(=O)c1ccc(Cl)cc1)Nc1ncc(Cl)cc1Cl,2%
Cn1c(=O)c2c(nc(CN3CCN(c4ccccc4F)CC3)n2CCN2CCOCC2)n(C)c1=O,129%
O=C(O)C1CC(=O)N(Cc2ccc(F)cc2)C1 (stereo not drawn),-4%
CCN(Cc1cc2ccccc2[nH]c1=O)C(=O)C(C)C,-6%
CCOC(=O)c1cc(C(O)(C(F)(F)F)C(F)(F)F)c(/N=C/N(C)C)o1,46%
COC(=O)CC1=Nc2ccccc2NC(=O)C1,-2%
CCCOc1ccccc1C(=O)N(Cc1cccs1)C1CCS(=O)(=O)C1 (stereo not drawn),7%
O=C(NCC1CCCO1)c1ccc(Cl)c(F)c1F (stereo not drawn),-1%
Cc1noc(C)c1-c1ccc2ncnc(NCCN3CCOCC3)c2c1,1%
CC1Cn2c(nnc2-c2ccccc2O)S1 (stereo not drawn),5%
CCS(=O)(=O)CCSc1nc2c(cc1C#N)CCCC2,12%
O=C(c1ccc2c(=O)n(C3CCCC3)c(=S)[nH]c2c1)N1CCN(C2CCCCC2)CC1,116%
Cc1ccccc1-c1nc(CS(=O)(=O)CC(=O)N2CCc3ccccc3C2)c(C)o1,32%
C[C@H]1CC[C@@H]2[C@@H](C)[C@H]3[C@H](C[C@H]4[C@@H]5CC=C6C[C@@H](O[C@]7(O[C@H]8O[C@@H](C)[C@@H](O)[C@@H](O)[C@@H]8O)C[C@@H](O[C@@H]8O[C@H](CO)[C@@H](O)[C@H](O)[C@@H]8O)[C@@H](O)[C@H](CO)O7)CC[C@]6(C)[C@H]5CC[C@@]34C)N2C1,131%[12.8 µM]
SMILES,AmpC inh no det
CN(C)CCNC(=O)COc1cccc(Cl)c1,-4%
COC(=O)[C@@H](NC(=O)NCc1cccs1)C(C)C,-3%
COc1ccc(F)cc1S(=O)(=O)N1CCCN(S(=O)(=O)c2cc(F)ccc2OC)CC1,64%
O=C(c1ccc(CNc2c(N3CCCC3)c(=O)c2=O)cc1)N1CCc2ccccc2C1,67%
CCCn1c(C)nc2c(NCC3CCCN3CC)nc(C)nc21 (stereo not drawn),8%
COc1ccc(NC(=O)Nc2ccc(OCC(=O)N3CCOCC3)cc2)cc1OC,0%
CC1Oc2ccccc2N(Cc2ccccc2F)C1=O (stereo not drawn),4%
O=C(CCn1c(=O)[nH]c2ccccc2c1=O)N1CCN(c2cccc(C(F)(F)F)c2)CC1,70%
Cc1cccc(NC(=O)c2sc(NC(=O)c3ccco3)c(C#N)c2C)c1C,-4%
CC1(C)OC(=O)N(c2ccccn2)C1(C)O (stereo not drawn),-8%
COn1c(SCC(N)=O)nc2ccccc2c1=O,-2%
O=S(=O)(CCc1ccccc1)N1CCOCC1,2%
c1ccc(-c2ccc(N3CC[C@@]4(CCCNC4)C3)cc2)cc1,60%
CN(Cc1c(F)cccc1Cl)c1ccc(S(=O)(=O)N2CCOCC2)cn1,65%
Cc1ccc(CNC(=O)[C@@H]2C[C@H]2[C@@H](NP(=O)(c2ccccc2)c2ccccc2)c2ccccc2)o1,87%
CC[N+](C)(CC)CCN1C(=O)c2ccccc2S1(=O)=O,2%[5.75 µM]
Cc1[nH]n2c(=O)c(C#N)c(-c3ccccc3)nc2c1-c1ccccc1,-22%
O=c1c(-c2ccc(Cl)cc2)nc2cncnc2n1Cc1ccc(F)cc1,-9%
CC1=C(C(=O)Nc2ccccc2C)C(c2ccccc2)NC(=O)N1 (stereo not drawn),2%
COc1ccc(S(=O)(=O)NCCC(C)C)cc1OC,4%
Cc1cc(=S)cc(C)n1CCCn1ccnc1,-6%
O=C(Nc1ccc(-c2nc3ncccc3o2)cc1)c1ccc(Br)o1,66%
COc1ccc(CN(C(=O)CSc2nnc(-c3ccc(F)cc3)o2)c2ccc(F)cc2)cc1,4%
O=C(NCc1ccco1)c1cc2cc3ccc(Cl)cc3nc2o1,-3%
CC12CCC(=O)N1C(C(=O)O)Cc1c2[nH]c2ccccc12 (stereo not drawn),-4%
SMILES,AmpC inh no det
C[C@](O)(C(=O)Nc1ccc(S(=O)(=O)c2ccccc2)cc1)C(F)(F)F,5%
COc1cccc(C2CC(c3ccc(Cl)cc3)Nc3nc(N)nn32)c1 (stereo not drawn),92%
c1cc2c(cc1Cn1cnnn1)OCO2,-13%
Cn1cccc1CNC(=O)Nc1ccc(Cl)c(Cl)c1,-13%
C#CC1(O)CC(C)N(C)C(C)C1 (stereo not drawn),7%
CCn1c(SCC(=O)Nc2ccc3c(c2)OCO3)nnc1-c1cnccn1,21%
C=CCNc1nc2ccccc2nc1NS(=O)(=O)c1cccs1,-10%
COc1ccccc1S(=O)(=O)Cc1ccc(C(=O)NC(C)c2ccc3c(c2)OCCO3)o1 (stereo not drawn),58%
O=C(CSc1nnc(COc2cccc3cccnc23)o1)c1ccc(F)cc1,32%
CCOC(=O)N1CCN(c2cc(=O)n(-c3ccc(OC)cc3)c(=O)[nH]2)CC1,5%
COc1ccccc1Nc1nc(N)nc(CSc2ncccn2)n1,2%
CCCC(=O)Nc1ccc(Cl)c(NC(=O)C(C)(C)C)c1,1%
COC(=O)c1ccc(C(NC(=O)OCc2ccccc2)/C(C)=C/[C@@H](C)C(=O)NCc2nn(-c3ccccc3)nc2C)cc1 (stereo partly drawn),24%
CCCCN(CC)S(=O)(=O)c1ccc(C(=O)Nc2nnc(COC)o2)cc1,6%
Cc1cc(C)n(-c2nc3ccccc3c(=O)n2OCc2ccc(F)cc2)n1,41%
O=S(=O)(NCC(c1ccccc1)N1CCNCC1)c1ccc(Cl)cc1 (stereo not drawn),37%
O=C(c1ccco1)N1CCC2(CCCN(Cc3ccncc3)C2)CC1,94%
CCOc1cc(C(=O)OCc2ccc(C(=O)OC)o2)cc(Br)c1OC,23%
CCCNC(=O)Nc1ccccc1C(=O)Nc1ccc(OC)cc1,-5%
CCN1CCN(CC(=O)Nc2sc3c(c2C#N)CCC(C)C3)CC1 (stereo not drawn),87%
O=C1CCCc2c1nc(-c1ccco1)n2O,-4%
CC(C)Oc1ccc2nnnn2n1,8%
